Ecoli growth: E. coli growth inhibition, primary screen, OD600; Escherichia coli growth, 23 h; active compounds read low; OD600 absorbance (concentration not given with the values); 0.21% of 330,000 active; AID 1053175, 2014;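 active = OD600 absorbance below the run mean of sample wells minus 3.6 SD, in any replicate, cut at about 0.56 in these data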;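 also: stock transfer was 300 nL into about 60 µL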
ALR inh: inhibitors of human ALR sulfhydryl oxidase, primary screen, biochemical, H2O2 detection, HRP-luminol luminescence, single point; AID 485317, 2010; purified ALR, DTT oxidation; 3.8% of 290,000 active; inhibition, % (test concentration not listed);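 active = mean and each replicate at 75% or more; inconclusive = only one of the two met; inactive = neither met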;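 also: stock transfer was 7.5 nL into about 7.5 µL; 0% = neutral wells and 100% = wells with inactivated enzyme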
Target sequence (P55789 whole entry, looked up): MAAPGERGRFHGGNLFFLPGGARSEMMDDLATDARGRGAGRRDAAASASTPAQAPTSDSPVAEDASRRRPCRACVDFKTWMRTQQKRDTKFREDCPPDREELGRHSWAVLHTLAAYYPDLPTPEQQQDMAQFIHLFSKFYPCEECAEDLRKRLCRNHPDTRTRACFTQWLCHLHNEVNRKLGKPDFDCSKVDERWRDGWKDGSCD
HNF4A DNA FP: change in binding of human HNF4A to DNA, primary screen, biochemical, fluorescence polarization, FITC-DNA | Hepatocyte nuclear factor 4-alpha (Homo sapiens), P41235 | 1 h | activity change, % at 10 µM | 0.3% of 360,000 active | AID 1224865, 2016; in the data active = activity change above about 30%, passing the limit was not always enough;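 also: controls were the assay level and a saturating level of protein; the project sought stronger binding though the title names inhibitors; some compounds called inactive have numbers as strong as hits; positive values seem to mean higher polarization but the record does not say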
Target sequence (P41235 whole entry, looked up): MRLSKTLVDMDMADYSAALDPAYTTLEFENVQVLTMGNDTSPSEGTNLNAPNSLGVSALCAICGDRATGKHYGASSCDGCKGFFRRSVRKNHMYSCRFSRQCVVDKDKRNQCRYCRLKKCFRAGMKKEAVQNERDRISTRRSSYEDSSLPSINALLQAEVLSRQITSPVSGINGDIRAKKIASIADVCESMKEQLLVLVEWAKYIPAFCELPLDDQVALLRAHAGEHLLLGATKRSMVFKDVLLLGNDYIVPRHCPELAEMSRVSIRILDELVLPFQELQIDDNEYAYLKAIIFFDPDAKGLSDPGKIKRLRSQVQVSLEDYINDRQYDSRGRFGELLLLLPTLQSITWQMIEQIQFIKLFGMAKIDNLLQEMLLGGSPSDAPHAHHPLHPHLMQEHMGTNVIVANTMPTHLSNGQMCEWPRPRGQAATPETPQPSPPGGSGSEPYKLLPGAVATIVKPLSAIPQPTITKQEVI
Vif TR-FRET: inhibitors of Vif binding to APOBEC3G peptide, primary screen, biochemical, TR-FRET, GST-Vif 1-94, biotin-A3G peptide, dose response retest (AID 1117319); Virion infectivity factor (Human immunodeficiency virus type 1 group M subtype B (isolate …; TR-FRET GST-Vif / biotin-A3G peptide binding; higher % means a stronger effect; test concentration not given here; strong numbers were not always called active; inhibition, %, or IC50 in µM where a hit was titrated; 0.57% of 260,000 active;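 active = above the screen mean plus three standard deviations and confirmed in dose response; inconclusive = results disagree or hit not tested in dose response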;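 also: Vif residues 1-94 fused to GST binding biotinylated APOBEC3G peptide 110-148; 0% = full assay without inhibitor and 100% = GST in place of GST-Vif; retest series ran down from 100 µM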
FGF22 binding: binders of human FGF22 protein, primary screen, FGF22 synaptogenesis inhibitor project, biophysical, thermal shift, single point; Fibroblast growth factor 22 (Homo sapiens), Q9HCT0; recombinant FGF22 thermal shift, SYPRO orange fluorescence; percent of sucrose octasulfate shift, DMSO zero; calls only at 9.99 µM; 1.5% of 340,000 active; AID 651658, 2012;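 active = melting point raised past a set limit in the mean and every replicate; inconclusive = no clear call; three in four hits are not shown here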
Target sequence (Q9HCT0 whole entry, looked up): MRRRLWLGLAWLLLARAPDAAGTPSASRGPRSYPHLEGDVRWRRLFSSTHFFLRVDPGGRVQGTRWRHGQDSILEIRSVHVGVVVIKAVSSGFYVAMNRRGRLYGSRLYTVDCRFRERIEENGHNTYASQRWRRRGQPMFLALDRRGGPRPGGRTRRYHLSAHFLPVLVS
Ecoli rRNA inh: reduced GFP signal of wild-type E. coli, primary screen, bacterial rRNA inhibitor project, GFP/RFP fluorescence, OD600, single point; E. coli WT GFP vs humanized-ribosome RFP mutants, 24 h; active compounds read low; DMSO median 0, no signal -100; GFP signal change (wild-type ribosome), % (concentration not given with the values); 1.6% of 350,000 active; AID 720706, 2013;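 active = significant combined selectivity score with lowered wild-type GFP, culture density cut under 30%, mutant RFP and density less affected; inactive = any of these conditions unmet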; also: one replicate is shown; some compounds called inactive have numbers as strong as hits
MLL AF4-AF9 inh: inhibitors of AF4 peptide binding to AF9, primary screen, biochemical, AlphaScreen, biotin-AF4 peptide, FLAG-AF9, single point. 0.47% of 350,000 active. Protein AF-9 (Homo sapiens), P42568. inhibition, % at 10 µM;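 active = every replicate reaching a set inhibition limit, whatever the replicate mean, cut at about 25% in these data; inconclusive = mean inhibition reaches that limit but some replicates miss it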;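 also: 0% = plate neutral control median and 100% = total signal loss; the record names both 10 and 1 µM as test concentration; the first replicate is given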
Ecoli rRNA inh OD600: second read-out of Ecoli rRNA inh, no call of its own (marks repeat the call); OD600 change, %; measured here: OD600 growth;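 optical density of the mix in the first replicate; 0 = DMSO median and -100 = no signal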
Ecoli rRNA inh RFP: also measured in Ecoli rRNA inh; calls as there; RFP signal change, %; measured here: RFP humanized mutant strains;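 first replicate; 0 = DMSO median and -100 = no signal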
* marks the source's active call; other numbers are inactive results. An excerpt; rates above refer to the full screens.

For COC(=O)c1ccc(COC(=O)c2[nH]c(C)c(C(C)=O)c2C)o1 the results were Ecoli growth 0.77, ALR inh -4, HNF4A DNA FP 3.0 and Vif TR-FRET 1%.
For Cc1ccc(S(C)(=O)=O)cc1C(=O)Nc1cccc(S(=O)(=O)N2CCCCCC2)c1 the results were Ecoli growth 0.7, ALR inh -2, HNF4A DNA FP 1.4, FGF22 binding inactive, Ecoli rRNA inh -9, MLL AF4-AF9 inh -1.8, Ecoli rRNA inh OD600 -5 and Ecoli rRNA inh RFP 6.3.
C[C@H](CO)N1C[C@H](C)[C@@H](CN(C)S(=O)(=O)c2ccc(Cl)cc2)Oc2c(NC(=O)Nc3ccc4c(c3)OCO4)cccc2C1=O was read as FGF22 binding inactive, Ecoli rRNA inh -6, MLL AF4-AF9 inh 8.2, Ecoli rRNA inh OD600 -3 and Ecoli rRNA inh RFP -0.3.
`O=C(Cn1c2c(c(=O)n3ncnc13)CCC2)N/N=C/c1cccs1` gave ALR inh -4, HNF4A DNA FP 3.0, Vif TR-FRET -12%, FGF22 binding inactive, Ecoli rRNA inh 2, MLL AF4-AF9 inh -4.8, Ecoli rRNA inh OD600 1 and Ecoli rRNA inh RFP 3.5.
For O=C(OCc1cn([C@H]2CN(C(=O)C3CCCCC3)[C@@H](c3ccccc3)C[C@@H]2O)nn1)c1ccccc1 the results were HNF4A DNA FP 2.4, Vif TR-FRET 4%, FGF22 binding inactive, Ecoli rRNA inh -3, MLL AF4-AF9 inh -3.2, Ecoli rRNA inh OD600 -7 and Ecoli rRNA inh RFP 13.
Screening Cc1cc(C)cc(C(=O)NC(CC(N)=O)c2ccc(NCCN3CCCC3)c([N+](=O)[O-])c2)c1 (stereo not drawn) returned Ecoli growth 0.7, ALR inh -1, HNF4A DNA FP -4.6, FGF22 binding inactive, Ecoli rRNA inh 5, MLL AF4-AF9 inh 0.5, Ecoli rRNA inh OD600 8 and Ecoli rRNA inh RFP -3.6.
For CCOc1ccc(N(CC(=O)NC2CCCC2)C(=O)CCCC(=O)Nc2ccccn2)cc1 the results were Ecoli growth 0.72, ALR inh -16, HNF4A DNA FP 2.1 and Vif TR-FRET 3%.
`O=C(NNC1=Nc2ccccc2SC1)c1cccc([N+](=O)[O-])c1` gave Ecoli growth 0.61, ALR inh 3, HNF4A DNA FP 3.2, Vif TR-FRET inconclusive, Ecoli rRNA inh 12, MLL AF4-AF9 inh 3.4, Ecoli rRNA inh OD600 16 and Ecoli rRNA inh RFP 1.4.
For COc1ccc(S(=O)(=O)N2CCOCC2)cc1NC(=O)CCCOc1ccccc1 the results were Ecoli growth 0.67, ALR inh -11, HNF4A DNA FP 0.9, Vif TR-FRET -2%, FGF22 binding inactive, Ecoli rRNA inh 0, MLL AF4-AF9 inh -4.6, Ecoli rRNA inh OD600 0 and Ecoli rRNA inh RFP 6.4.
`CN(C)C(=O)c1ccc(-c2cccc(-c3nc(C(=O)N(C)C)cc4c3[C@@H](CCO)N([S@](=O)C(C)(C)C)C4)c2)cc1` gave FGF22 binding inactive, Ecoli rRNA inh 3, MLL AF4-AF9 inh -5.1, Ecoli rRNA inh OD600 4 and Ecoli rRNA inh RFP 18.
`O=C(CSc1ncn(-c2ccccc2)n1)Nc1ccc(Br)cn1` gave Ecoli growth 0.68, ALR inh -1, HNF4A DNA FP -4.0 and Vif TR-FRET -6%.
`CCCn1c(=O)c(C(=O)Nc2ccccc2)c(O)c2ccccc21` gave Ecoli growth 0.74, ALR inh -8, HNF4A DNA FP 1.0 and Vif TR-FRET -2%.
For Cn1c(N)c(C(=O)COC(=O)c2cncc(Br)c2)c(=O)n(C)c1=O the results were Ecoli growth 0.65, ALR inh -8, HNF4A DNA FP 3.1, Vif TR-FRET -4%, FGF22 binding inactive, Ecoli rRNA inh 20, MLL AF4-AF9 inh -2.6, Ecoli rRNA inh OD600 11 and Ecoli rRNA inh RFP 2.7.
Screening CN(C)/C=N/c1nc2nccc(-c3cccs3)n2n1 returned ALR inh 10, HNF4A DNA FP -0.7, Vif TR-FRET 4%, FGF22 binding inactive, Ecoli rRNA inh 1, MLL AF4-AF9 inh -14, Ecoli rRNA inh OD600 -1 and Ecoli rRNA inh RFP 1.9.
Cc1ccc(C(=O)N[C@H](C(=O)OCC(=O)c2ccc[nH]2)C(C)C)cc1 was read as Ecoli growth 0.65, ALR inh -3, HNF4A DNA FP 1.7, Vif TR-FRET -8%, FGF22 binding inactive and MLL AF4-AF9 inh -1.7.
COc1ccc(CCNC(=O)c2cccnc2Cl)cc1OC was read as Ecoli growth 0.69, ALR inh -15, HNF4A DNA FP -0.3, FGF22 binding inactive, Ecoli rRNA inh 6, MLL AF4-AF9 inh -2.6, Ecoli rRNA inh OD600 11 and Ecoli rRNA inh RFP -2.1.
Screening CCN(C[C@H]1N[C@@](Cc2ccccc2)(C(=O)OC)[C@H]2C(=O)N(Cc3ccccc3)C(=O)[C@@H]12)C(=O)Nc1ccc(C(F)(F)F)cc1 returned Ecoli growth 0.58, ALR inh -2, HNF4A DNA FP 2.1, Vif TR-FRET -6%, FGF22 binding inactive, Ecoli rRNA inh -54, MLL AF4-AF9 inh 0.7, Ecoli rRNA inh OD600 -74 and Ecoli rRNA inh RFP -22.
For CC(C)c1ccc(NC2CCCN(C(=O)c3ccccc3-c3ncc[nH]3)C2)cc1 (stereo not drawn) the results were Ecoli growth 0.71, ALR inh 88*, HNF4A DNA FP -0.6, Vif TR-FRET -7%, FGF22 binding inactive, Ecoli rRNA inh 5, MLL AF4-AF9 inh 0.1, Ecoli rRNA inh OD600 -15 and Ecoli rRNA inh RFP -5.2.
Screening COc1ccc(S(=O)(=O)N2CCCCN3[C@H](CO)[C@@H](c4ccc(-c5cccnc5)cc4)[C@H]3C2)cc1 returned FGF22 binding inactive, Ecoli rRNA inh -9, MLL AF4-AF9 inh -0.8, Ecoli rRNA inh OD600 -7 and Ecoli rRNA inh RFP 1.0.
For CC1(C)CC(CCC(=O)Nc2ccc(S(N)(=O)=O)cc2)C(=O)O1 (stereo not drawn) the results were Ecoli growth 0.68, ALR inh 9, HNF4A DNA FP 1.7 and Vif TR-FRET 0%.
`Cc1ccc(C(=O)Nc2ccc(NC(=O)c3ccccc3Cl)c(C)c2)cc1` gave HNF4A DNA FP -1.5, Vif TR-FRET -17%, FGF22 binding inactive, Ecoli rRNA inh -2, MLL AF4-AF9 inh -1.8, Ecoli rRNA inh OD600 8 and Ecoli rRNA inh RFP 3.3.
`CC(C)NC(=O)Nc1ccc2c(c1)CC(=O)N([C@@H](C)CO)C[C@H](C)[C@@H](CN(C)Cc1ccc(-c3ccccc3)cc1)O2` gave FGF22 binding inactive, Ecoli rRNA inh -10, MLL AF4-AF9 inh 4.0, Ecoli rRNA inh OD600 -19 and Ecoli rRNA inh RFP 9.5.
CCCCCCCSc1ncnc2[nH]ncc12 was read as Ecoli growth 0.63, HNF4A DNA FP -1.5, Vif TR-FRET -9%, FGF22 binding inactive and MLL AF4-AF9 inh -11.
Screening Cc1ccc(S(=O)(=O)N[C@H]2CC[C@H](CCn3cc(C4(O)CCCC4)nn3)O[C@@H]2CO)cc1 returned FGF22 binding inactive, Ecoli rRNA inh -6, MLL AF4-AF9 inh 0.4, Ecoli rRNA inh OD600 -10 and Ecoli rRNA inh RFP -1.2.
For Cc1cccc(Nc2nc3c(c(=O)n(C)c(=O)n3C)n2CC(O)CO)c1 (stereo not drawn) the results were Ecoli growth 0.76, ALR inh 60, HNF4A DNA FP 0.8 and Vif TR-FRET -18%.
`CCOC(=O)C(NC(=O)OC(C)C)(Nc1nccs1)C(F)(F)F` (stereo not drawn) gave Ecoli growth 0.77, ALR inh -2, HNF4A DNA FP -2.2 and Vif TR-FRET 0%.
For C[C@H]1CN([C@@H](C)CO)C(=O)c2cc(NC(=O)Cc3ccccc3)ccc2O[C@@H]1CN(C)Cc1ccncc1 the results were FGF22 binding inactive, Ecoli rRNA inh 3, MLL AF4-AF9 inh -3.6, Ecoli rRNA inh OD600 7 and Ecoli rRNA inh RFP -0.8.
`CCOC(=O)c1c(C)[nH]c(C)c1C(=O)COC(=O)c1cccnc1Cl` gave Ecoli growth 0.66, ALR inh 4, HNF4A DNA FP 1.8, Vif TR-FRET -6%, FGF22 binding inactive, Ecoli rRNA inh -6, MLL AF4-AF9 inh 3.3, Ecoli rRNA inh OD600 3 and Ecoli rRNA inh RFP 6.4.
For CCCCNS(=O)(=O)c1ccc2nc(SCC(=O)c3ccccc3OC)[nH]c2c1 the results were Ecoli growth 0.73, ALR inh 35, HNF4A DNA FP 2.4, Vif TR-FRET -3%, FGF22 binding inactive, Ecoli rRNA inh -45*, MLL AF4-AF9 inh 8.7, Ecoli rRNA inh OD600 -35* and Ecoli rRNA inh RFP 15*.
Screening O=C(C1CCN(S(=O)(=O)c2ccc(Cl)cc2)CC1)N1CCOCC1 returned Ecoli growth 0.69, ALR inh -14, HNF4A DNA FP -3.5 and Vif TR-FRET -2%.
Screening CCc1cc(=O)oc2cc3occ(-c4ccc(OC)c(F)c4)c3cc12 returned Ecoli growth 0.73, ALR inh 7, HNF4A DNA FP 30, FGF22 binding inactive, Ecoli rRNA inh 2, MLL AF4-AF9 inh 0.6, Ecoli rRNA inh OD600 12 and Ecoli rRNA inh RFP 10.
Screening CN1CCC(=NNC(=O)c2cc(-c3ccc(Cl)cc3)n[nH]2)CC1 returned Ecoli growth 0.67, ALR inh 32, HNF4A DNA FP 2.2, FGF22 binding inactive, Ecoli rRNA inh -13, MLL AF4-AF9 inh 3.9, Ecoli rRNA inh OD600 0 and Ecoli rRNA inh RFP 1.4.
Screening Cc1ccc(OCC(=O)Nc2cccc(O)c2)cc1C returned Ecoli growth 0.69, ALR inh 98*, HNF4A DNA FP -3.8 and Vif TR-FRET 22%.
`CC(C)NC(=O)Nc1ccc2c(c1)C(=O)N([C@H](C)CO)C[C@H](C)[C@H](CN(C)C(=O)NC1CCCCC1)O2` gave FGF22 binding inactive, Ecoli rRNA inh 0, MLL AF4-AF9 inh -24, Ecoli rRNA inh OD600 5 and Ecoli rRNA inh RFP 1.5.
For C=CCCC(=O)NC1CC(C)(C)Cc2c1cnn2-c1ccc(OC)cc1 (stereo not drawn) the results were Ecoli growth 0.68, ALR inh -1, HNF4A DNA FP 7.7, FGF22 binding inactive, Ecoli rRNA inh 0, MLL AF4-AF9 inh -19, Ecoli rRNA inh OD600 0 and Ecoli rRNA inh RFP -3.1.
For CCC1CCCCN1CCCNC(=O)CN1C(=O)c2cccnc2Oc2ccc(C)cc21 (stereo not drawn) the results were Ecoli growth 0.67, ALR inh -16, HNF4A DNA FP -3.6, Vif TR-FRET -2%, FGF22 binding inactive, Ecoli rRNA inh 5, MLL AF4-AF9 inh -1.5, Ecoli rRNA inh OD600 2 and Ecoli rRNA inh RFP -0.6.

Random excerpt: two compounds from above
Screening Cc1ccc(OCC(=O)Nc2cccc(O)c2)cc1C returned Ecoli growth 0.69, ALR inh 98*, HNF4A DNA FP -3.8 and Vif TR-FRET 22%.
Screening CCc1cc(=O)oc2cc3occ(-c4ccc(OC)c(F)c4)c3cc12 returned Ecoli growth 0.73, ALR inh 7, HNF4A DNA FP 30, FGF22 binding inactive, Ecoli rRNA inh 2, MLL AF4-AF9 inh 0.6, Ecoli rRNA inh OD600 12 and Ecoli rRNA inh RFP 10.
